Source: PubChem BioAssay
Calb biofilm kill: mixtures killing C. albicans biofilm | C. albicans biofilm persisters + clotrimazole, fluorescence viability; primary screen in compound mixtures of four per well | inhibition, % at 7.6 µM | hit rate 0.02% among 120,000;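 active means inhibition above 30.3% in the primary screen of four-compound pools, then above 30% when the compound was retested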;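 further: compounds exposed to preformed 24 h biofilms for 48 h; the number belongs to the whole pool; some results filed as inactive read as strong as hits; inactives centre near 12; 0% = biofilm with clotrimazole alone and 100% = kill control; retested singly at about 60 µM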
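System: C. albicans CAF4-2 wild-type biofilms; Medium: RPMI/MOPS medium, pH 7.0; Reagent: Clotrimazole, 50 µg/mL; Times: biofilm formation 24 h, compound exposure 48 h, 37 °C; Detection: 2-h Alamar Blue fluorescence, 535/590 nm excitation/emission; Evaluation: percent inhibition of biofilm viability.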
* = called active by the depositor. These rows are one share of the data; rates above refer to the full screens.

SMILES | Calb biofilm kill
CCCc1nc2c(=O)n(C)c(=O)nc-2n(C)n1 | 3.8
CCN(CC)C1=CC(=[N+]2CCCC2)CC(C)(C)C1 | -4.1
COc1cc(-c2cc(C(=O)NCCc3ccc(S(N)(=O)=O)cc3)c3ccccc3n2)cc(OC)c1OC | 12.8
O=C(Nc1cc(S(=O)(=O)N2CCOCC2)ccc1N1CCOCC1)c1cc(=O)[nH]c2ccccc12 | 8.1
O=C(/C=C/c1ccc(F)cc1)NCCCN1CCN(CCCNC(=O)/C=C/c2ccc(F)cc2)CC1 | 13.9
C[N+]1(CC#CC(O)(c2ccccc2)c2ccccc2)CCCC1 | 13.4
Cc1nc(SCC(=O)NCC(F)(F)F)c2c(-c3cccs3)csc2n1 | 7.9
Cc1ccc2c(ccc(=S)n2C)c1 | 7.7
O=C(CN1C(=O)S/C(=C\c2ccccc2)C1=O)NNC(=O)c1ccccc1O | 9.6
C/C(=N\N=C(N)N)c1cccc([N+](=O)[O-])c1 | 15.2
CC(=O)N(c1nc(CCl)cs1)c1cccc(C)c1C | -5.6
CN(Cc1ccccc1)S(=O)(=O)c1ccc(Cl)c(C(=O)O)c1 | -0.7
C/C(=N\NC(=O)CC1N=C(Cc2ccccc2)NNC1=O)c1ccncc1 (centres undefined) | 12.2
Cn1cc(C(=O)N2CCc3ccccc3C2)c(=O)c2cc(S(=O)(=O)N3CCOCC3)ccc21 | 12.5
CCN(CC)c1ccc(C=Nc2ccccc2)c(O)c1 | 13.6
O=C1C(=Cc2ccc(Br)o2)C(=O)c2ccccc21 | 13.6
COc1ccc(-c2csc(NC3OC(=O)c4c3ccc(OC)c4OC)n2)cc1OC (centres undefined) | 19.4
COc1ccc(C2=NN(C(C#N)c3ccc(OC)cc3)C(c3ccccc3)C2)cc1 (centres undefined) | -1.9
CC1(C)CNC(=O)c2sc(NC(=O)c3ccccc3)nc2C1 | 12.3
Cc1c(C(=O)O)oc2c1C(=O)CC(C)(C)C2 | 9.3
CCOC(=O)Nc1ccc(C(=O)/C=C/c2ccccc2)cc1 | 13.4
S=c1[nH]nc2nnc3ccccc3n12 | 11.6
CCC1(CC)NC(=O)N(Cc2nc3ccccc3s2)C1=O | 10.4
CC(C)(C)OC(=O)NCCCCCNC(=O)c1[nH]cnc1C(=O)N[C@@H](Cc1ccccc1)C(=O)OCc1ccccc1 | 14.9
CCOC(=O)Cc1csc(NC(=O)/C=C/c2cccc(Br)c2)n1 | 9.8
Further records
SMILES | Calb biofilm kill
COC(=O)c1ccc(NC(=O)Nc2ccc3c(c2)nc(C)n3C)cc1 | 12.3
CCCN(CCC)S(=O)(=O)c1ccc(NC(=O)C2CCCO2)cc1 (centres undefined) | 19.8
CC(C)n1nc(C(=O)NCc2ccc3c(c2)OCO3)c2ccccc2c1=O | -8.2
CCC(NC(=O)C1CCC1)c1ccccc1 (centres undefined) | 8.0
C#CCO[C@@H]1C[C@H](n2cnc3c(=O)[nH]c(NC(=O)C(C)C)nc32)O[C@@H]1CO | -3.6
CCN(CC)CCCNC(=O)c1ccc(OCC(=O)Nc2ccccc2C(F)(F)F)c(OC)c1 | 8.6
O=C(O)C1CCCCC1C(=O)Nc1cccc2ccccc12 (centres undefined) | 13.9
O=[N+]([O-])c1ccc(S(=O)(=O)N2CCSC2c2ccco2)cc1 (centres undefined) | 19.9
Cc1ccc(C(=O)NCC(=O)N2CCN(S(=O)(=O)c3cccs3)CC2)s1 | 17.3
Cc1nc2c3cc(F)ccc3n(Cc3ccccc3)c2s1 | 19.8
CC(C)[C@H](NC(=O)c1ccc(C(C)(C)C)cc1)C(=O)Nc1nnc(C2CC2)s1 | 11.0
COc1cc(/C=N/NC(=O)CC23CC4CC(CC(C4)C2)C3)cc(Br)c1OCC(=O)N(C)C | 14.8
CCc1ccccc1NC(=S)N(CCN1CCCCC1)Cc1ccco1 | 18.2
CCCCN(C)C1CCN(C(=S)Nc2ccc(OC)cc2)CC1 | 13.4
Cc1ccc2ncccc2c1[N+](=O)[O-] | 13.3
Cc1cnc(NC(=O)c2ccc(OCC3CCCO3)cc2)s1 (centres undefined) | 9.9
O=c1[nH]c(SCc2ccc([N+](=O)[O-])cc2)nc2[nH]ncc12 | 2.1
Cc1ccc(C(=O)COC(=O)CCC(=O)NC2CCCCC2)cc1[N+](=O)[O-] | 23.7
O=C(O)C(CO)N=Cc1c(O)c2ccccc2oc1=O (centres undefined) | 9.9
CCS(=O)(=O)N1CCN(Cc2c[nH]c3ccccc23)CC1 | 11.2
CCOc1ccccc1NC(=O)C1=C(C)NC(=O)NC1c1cccs1 (centres undefined) | 13.1
CCCc1cc(-c2n[nH]c(=S)n2CC)cs1 | 12.2
CC(=O)Nc1ccc(NC(=O)COC(=O)Cc2c[nH]c3ccccc23)cc1 | 2.9
CCc1ccc(-n2cc(-c3ccc([N+](=O)[O-])cc3)[nH]c2=S)cc1 | 10.4
Cc1cc(Cl)ccc1OCC(=O)NN1C(=O)C2C3C=CC(C3)C2C1=O (centres undefined) | 17.8

Sorted by count of non-hydrogen atoms (high to low): three of the compounds above.
SMILES | Calb biofilm kill
Cc1ccc(C(=O)COC(=O)CCC(=O)NC2CCCCC2)cc1[N+](=O)[O-] | 23.7
Cc1ccc(C(=O)NCC(=O)N2CCN(S(=O)(=O)c3cccs3)CC2)s1 | 17.3
O=c1[nH]c(SCc2ccc([N+](=O)[O-])cc2)nc2[nH]ncc12 | 2.1

Next results:
SMILES | Calb biofilm kill
Cc1nonc1OCCN1CCN(c2ccc([N+](=O)[O-])cc2)CC1 | 22.4
COc1ccccc1NC(=O)c1c(N=Cc2c(O)ccc3ccccc23)cnn1C | 19.1
CCn1c(=O)c([N+](=O)[O-])c(NCC(O)c2ccccc2)c2ccccc21 (centres undefined) | 13.8
CN(C)c1ccc(C2Nc3ccccc3C(=O)N2NS(=O)(=O)c2ccccc2)cc1 (centres undefined) | 7.4
CCCN1CCN(C(=S)Nc2ccc([N+](=O)[O-])cc2)CC1 | 11.5
NS(=O)(=O)c1ccc(NC(=O)COC(=O)COc2ccccc2)cc1 | 0.0
CC(C)=CCN1CCN(Cc2cnc(N3CCCC3)s2)CC1CCO (centres undefined) | 36.2
COc1ccc(-n2c(O)c(/C=N/Nc3nc(C)cc(C)n3)c3ccccc3c2=O)cc1OC | 1.9
Cc1cc(C)c(NC(=O)c2sc3nc4c(cc3c2N)C(=O)CC(C)(C)C4)c(C)c1 | 5.5
NNC(=O)c1cc2c(N3CCC(Cc4ccccc4)CC3)ncnc2s1 | 16.4
Fc1ccc(COc2cccc3cccnc23)cc1 | -7.4
CCCN(CC(=O)Nc1ccc(Cl)cc1Cl)C(=O)/C=C/c1cc(OC)ccc1OC | 14.4
CC(=O)Oc1cccc(/C=C2\Sc3ccccc3C2=O)c1 | 25.0
O=C(Nc1ccc(SC(F)F)cc1)c1ccc(F)cc1 | 15.4
CNc1ncc(C(=O)c2ccc(F)cc2)s1 | 12.0
CCOC(=O)N1CCN(C(=O)CSc2nc(CC)nc3c2c(=O)n(C)c(=O)n3C)CC1 | 14.4
CC(C)N1C(=O)C(O)(C2COC(C)(C)CC2=O)c2ccccc21 (centres undefined) | 13.2
CCOc1ccc(/C=N/OCC(=O)Nc2ccc(OCc3ccccc3)cc2)cc1OC | 10.7
Cc1ccc(NC(=O)c2cccc(OC(F)F)c2)c(OC(F)F)c1 | 12.1
CC(NC(=O)OCc1ccccc1)C(=O)NCC(=O)NC(Cc1ccc(OC(C)(C)C)cc1)C(=O)OC(C)(C)C (centres undefined) | 7.5
CCOC(=O)c1cn2nc(Oc3cccc(C(F)(F)F)c3)ccc2n1 | 18.7
CN=c1scc(-c2ccccc2F)n1/N=C/c1ccc(O)c(O)c1O | 12.3
O=C(O)Cc1c(-c2ccccc2)c2cc(Br)ccc2[nH]c1=O | -17.6
CCc1ccc(Nc2nnc(SCC(=O)N(C)CC(=O)Nc3ccccc3CC)s2)cc1 | 12.6
O=C(Nc1ccc2ccccc2c1)C(=O)C1C(=O)Nc2ccccc21 (centres undefined) | 12.0
(continued)
SMILES | Calb biofilm kill
O=C(O)COc1ccccc1/C=N/NC(=O)CSc1nc2ccccc2n1Cc1ccc(Cl)cc1 | 0.9
Cc1ccccc1C(=O)NNC(=O)CSc1nc2ccccc2c(=O)[nH]1 | 15.2
COc1c2ccoc2nc2c(OC)c(O)ccc12 | 15.9
Cc1ccc(C(NC(=O)N2CCOCC2)C(Cl)(Cl)Cl)cc1F (centres undefined) | 8.0
O=C(CSCc1ccccc1Cl)Nc1c[nH]c(=O)[nH]c1=O | 7.4
CC(NC(=O)c1ccccc1)C(=O)OCC(=O)N1c2ccccc2Sc2ccccc21 (centres undefined) | -2.9
COCCCNCCOc1ccc(C(C)(C)c2ccccc2)cc1 | -2.1
CC(=O)Nc1ccc(NS(=O)(=O)c2cc(-c3n[nH]c(=O)c4ccccc34)ccc2C)cc1 | 23.4
Nc1ccc(-c2nc3ccc(N)cc3s2)cc1 | 4.0
C[C@@H](C(=O)OCn1nnc2ccccc2c1=O)N1C(=O)C2CCCCC2C1=O (some centres undefined) | 16.7
COC(=O)c1ccc(-c2ccc(F)cc2)nc1C | -2.5
CC(=O)NCCC(=O)N1CCc2c([nH]c3ccccc23)C1c1cccc(C)c1 (centres undefined) | 16.2
Cn1c(=O)c2c(ncn2CC(=O)N/N=C/c2ccco2)n(C)c1=O | 6.4
Cc1ccc(-n2c(O)c(/C=C3/C(c4ccccc4)=Nc4ccccc43)c(=O)[nH]c2=O)cc1 | 14.2
CNc1ccc(Br)cc(C(=O)/C=C/c2ccc(OC)cc2OC)c1=O | 13.4
Cc1cc(C)n(-c2nnc3c4ccccc4n(C)c3n2)n1 | 26.2
COc1ccc(NC(=S)N/N=C2\CC(C)(C)Oc3ccc(O)cc32)cc1 | 10.7
Cc1cccc(NC(=O)c2ccc(S(=O)(=O)C(F)F)cc2)c1C | 13.0
Cc1nnc(N2C(=O)C(O)=C(C(=O)c3ccco3)C2c2cccc3ccccc23)s1 (centres undefined) | 18.3
COc1ccc2[nH]cc(CCNS(=O)(=O)c3ccc(C)cc3)c2c1 | 28.4
CC(=O)Nc1ccc(C(O)(C(F)(F)F)C(F)(F)F)cc1 | 8.5
CN(NS(=O)(=O)c1ccc(F)cc1)c1ncc(C(F)(F)F)cc1Cl | 8.0
Cc1cc(C)c(OCCN(C)Cc2ccccc2)c(Br)c1 | 5.3
COc1ccc(S(=O)(=O)c2nnn(-c3ccccc3Cl)c2N)cc1 | 7.0
CN(CC(=O)Nc1ccc(S(N)(=O)=O)cc1)Cc1ccccc1F | 20.1

Not a retest: entries from further up.
SMILES | Calb biofilm kill
CCCc1nc2c(=O)n(C)c(=O)nc-2n(C)n1 | 3.8
CCN(CC)C1=CC(=[N+]2CCCC2)CC(C)(C)C1 | -4.1

Continued.
SMILES | Calb biofilm kill
CN(C)c1ccc(/C=N/NC(=O)c2sccc2-n2cccc2)cc1 | 6.5
COc1ccc(OC)c(Nc2ncnc3c2cnn3-c2cccc(C)c2)c1 | 9.5
CC1=C(C(=O)OCCOc2ccccc2)C(c2coc3ccccc3c2=O)C2=C(CCCC2=O)N1 (centres undefined) | -5.8
CC(Nc1ccccc1)c1cccnc1 (centres undefined) | 2.7
O=C(O)CC1(CC(=O)NCc2csc(-c3cccs3)n2)CCCCC1 | 17.4
CCc1cccc2c(C(=S)N3CCCC3)c[nH]c12 | 3.5
COc1ccc(C(CC(=O)N2CCCCC2)C(C)C)cc1 (centres undefined) | 22.7
Cc1cc(=O)oc2cc(OCC(=O)OCC(=O)N(C)C3CCS(=O)(=O)C3)ccc12 (centres undefined) | 8.6
COc1ccc(NC(=O)N2CCC(n3nnc4cc(C)ccc43)CC2)cc1 | 8.0
CCc1ccc(NC(=O)Nc2c(C)n(C)n(-c3ccccc3)c2=O)cc1 | 9.3
CC(C)C[C@H](NC(=O)c1nc[nH]c1C(=O)N1CCN(c2ccccc2)CC1)C(=O)OC(C)(C)C | 13.7
CC(=O)OC(C(=O)NC1CCCCC1)c1ccccc1Cl (centres undefined) | -4.8
CC(NC(=O)CSC(=S)N(C)C)C12CC3CC(CC(C3)C1)C2 (centres undefined) | 10.0
O=S1(=O)CCC(N=Nc2c(O)n(Cc3ccccc3)c3ccccc23)C1 (centres undefined) | 26.4
CN1CCC(=O)N(CCSc2ccc(Br)cc2)CC1 | 18.3
COCCNCCCOc1ccc(Cl)cc1Br | 5.8
Cc1ccc2c(c1)-c1nc3ccccc3cc1C2=NC1CCCCC1 | 10.8
CN1C(=S)SC2CS(=O)(=O)CC21 (centres undefined) | 16.3
COc1ccc(NCC(=O)Nc2cc(S(=O)(=O)N3CCOCC3)ccc2N2CCOCC2)c(OC)c1 | 3.9
O=C(CSc1nccc(=O)[nH]1)NCc1ccc(Cl)cc1 | 11.5
O=C1CN(C(=O)CNC(=O)c2ccccc2Cl)c2ccccc2N1 | 12.1
COc1ccc(CN(C(=O)c2cccs2)c2ccccc2C(=O)O)cc1 | 18.6
COc1cc(C2C=C(c3cccs3)Nc3ncnn32)cc(OC)c1OC (centres undefined) | 6.3
CCOC(=O)C1=C(CNCc2ccccc2Cl)NC(=O)NC1c1cccc([N+](=O)[O-])c1 (centres undefined) | 5.8
COc1ccc(C[C@@H]2CN3C(=NC[C@@H]3C)N2C[C@H](C)NC(=O)CCC2CCCCC2)cc1 | 18.5
Cn1c(=O)c(/C(N)=N/OC(=O)c2ccccc2)cn(-c2ccccc2)c1=O | 16.5

4 of these compounds in a different format.
CCc1ccc(NC(=O)Nc2c(C)n(C)n(-c3ccccc3)c2=O)cc1
  Calb biofilm kill: 9.3

COCCNCCCOc1ccc(Cl)cc1Br
  Calb biofilm kill: 5.8

CC(C)C[C@H](NC(=O)c1nc[nH]c1C(=O)N1CCN(c2ccccc2)CC1)C(=O)OC(C)(C)C
  Calb biofilm kill: 13.7

COc1ccc(NCC(=O)Nc2cc(S(=O)(=O)N3CCOCC3)ccc2N2CCOCC2)c(OC)c1
  Calb biofilm kill: 3.9
